# Screening data deposited in PubChem by Broad Institute.
# rRNA inh HTS: reduced GFP signal of wild-type E. coli, primary screen, bacterial rRNA inhibitor project, GFP/RFP fluorescence, OD600, single point. E. coli WT GFP vs humanized-ribosome RFP mutants, 24 h; hits give low values; DMSO median 0, no signal -100. GFP signal change (wild-type ribosome), % (concentration not given with the values). actives 1.6% (n = 350,000);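 active = significant combined selectivity score with lowered wild-type GFP, culture density cut under 30%, mutant RFP and density less affected; inactive = any of these conditions unmet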; also: one replicate is shown; some compounds called inactive have numbers as strong as hits
# FGF22 binding: binders of human FGF22 protein, primary screen, FGF22 synaptogenesis inhibitor project, biophysical, thermal shift, single point; Fibroblast growth factor 22 (Homo sapiens), Q9HCT0; recombinant FGF22 thermal shift, SYPRO orange fluorescence; percent of sucrose octasulfate shift, DMSO zero; calls only at 9.99 µM; actives 1.5% (n = 340,000); AID 651658, 2012;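 active = melting point raised past a set limit in the mean and every replicate; three in four hits are not shown here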
# Target sequence (Q9HCT0 whole entry, looked up): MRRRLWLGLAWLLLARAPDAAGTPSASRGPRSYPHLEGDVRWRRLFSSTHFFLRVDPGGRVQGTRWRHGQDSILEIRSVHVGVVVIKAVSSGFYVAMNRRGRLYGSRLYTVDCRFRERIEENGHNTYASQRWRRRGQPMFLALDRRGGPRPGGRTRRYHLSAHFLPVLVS
# rRNA inh HTS OD600: second read-out of rRNA inh HTS, no call of its own (marks repeat the call); OD600 change, %; measured here: OD600 growth;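 optical density of the mix in the first replicate; 0 = DMSO median and -100 = no signal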
# rRNA inh HTS RFP: also measured in rRNA inh HTS; calls as there; RFP signal change, %; measured here: RFP humanized mutant strains;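 first replicate; 0 = DMSO median and -100 = no signal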
# Numbers without * were called inactive; i = inactive; + = active, no number. An excerpt; rates above refer to the full screens.
SMILES,rRNA inh HTS,rRNA inh HTS OD600,rRNA inh HTS RFP,FGF22 binding
O=C(NC1CCCC1)[C@H]1[C@H](CO)[C@H]2Cn3c(ccc(-c4ccccc4F)c3=O)[C@@H]1N2C(=O)CC1CC1,-3,-1,-1.8,i
C[C@@H]1CN([C@H](C)CO)C(=O)c2cc(NC(=O)CCN3CCOCC3)ccc2O[C@H]1CN(C)Cc1ccc(Cl)c(Cl)c1,-3,-10,0.6,i
COc1ccccc1-c1cnc2c(c1)C(=O)N([C@@H](C)CO)C[C@@H](C)[C@@H](CN(C)C(=O)c1ccncc1)O2,3,2,-0.5,i
C[C@@H]1CN([C@@H](C)CO)C(=O)c2cc(N(C)C)ccc2O[C@@H](C)CCCCO[C@@H]1CN(C)CC1CCCCC1,2,0,-2.6,i
CCCNC(=O)N1[C@@H](CO)[C@@H]2c3ccccc3N(C(=O)NC(C)C)C[C@@H]21,1,8,-2.6,i
O=C(C[C@H]1CC[C@@H]2[C@H](COC[C@H](O)CN2C(=O)c2cnccn2)O1)NCc1ccc(Oc2ccccc2)cc1,-1,2,0.2,i
CO[C@H]1CN(C)C(=O)c2ccc(NS(=O)(=O)CC(F)(F)F)cc2OC[C@H](C)N(CC2CCCCC2)C[C@@H]1C,-2,-3,-1.0,i
C[C@@H]1CCCCO[C@H](CN(C)S(C)(=O)=O)[C@H](C)CN([C@@H](C)CO)C(=O)c2cc(NC(=O)Nc3ccc(F)cc3)ccc2O1,-2,-2,-2.0,i
Cc1ccc(S(=O)(=O)N2CC[C@@H]3[C@H]2c2cc(C4=CCCCC4)ccc2N(C)[C@H]3CO)cc1,3,15,-9.1,i
COc1ccc(NC(=O)Nc2ccc3c(c2)[C@H]2C[C@H](CC(=O)N4CCN(C)CC4)O[C@H](CO)[C@H]2O3)cc1,3,1,0.5,i
C[C@@H]1CN([C@@H](C)CO)C(=O)Cc2cc(NC(=O)c3ccncc3)ccc2O[C@H]1CN(C)C(=O)Nc1ccc(F)cc1,3,1,-2.2,i
O=C(C[C@H]1CC[C@H]2[C@@H](COC[C@@H](O)CN2C(=O)c2ccccc2F)O1)NCc1ccc(F)cc1,-1,0,-5.8,i
CCN(C[C@@H]1[C@@H](c2ccccc2)[C@H](CO)N1C(C)=O)C(=O)c1cccc(F)c1,0,13,-0.4,i
CC(=O)N1CCCCN2[C@@H](CO)[C@@H](c3ccc(-c4ccc(C)cc4)cc3)[C@@H]2C1,0,7,0.0,i
C[C@@H]1CN([C@@H](C)CO)C(=O)Cc2cc(NC(=O)Nc3ccccc3)ccc2O[C@@H]1CN(C)Cc1ccc(C(=O)Nc2ccccc2N)cc1,-5,-3,4.1,i
COc1ccc(S(=O)(=O)Nc2ccc3c(c2)C(=O)N([C@H](C)CO)C[C@@H](C)[C@@H](CN(C)Cc2ccc(C(F)(F)F)cc2)OCCCC[C@H](C)O3)cc1,-1,1,1.7,i
C[C@H](CO)N1C[C@H](C)[C@@H](CN(C)S(C)(=O)=O)OCCCC[C@H](C)Oc2ccc(NS(=O)(=O)c3cn(C)cn3)cc2C1=O,2,-1,-0.9,i
CCCC(O)C#Cc1cnc2c(c1)C(=O)N([C@H](C)CO)C[C@H](C)[C@H](CN(C)S(=O)(=O)c1cn(C)cn1)O2 (stereo partly drawn),5,18,-6.6,i
OC[C@H]1[C@@H]2c3ccccc3NC[C@@H]2N1Cc1ccccc1Cl,1,5,0.5,+
C[C@H](CO)N1C[C@H](C)[C@H](CN(C)C(=O)Nc2ccc(F)cc2)Oc2ccc(NC(=O)CCC(F)(F)F)cc2CC1=O,1,-1,1.1,i
CNC(=O)C[C@@H]1CC[C@@H]2[C@@H](COc3ccc(NC(=O)Nc4ccc(Cl)cc4)cc3C(=O)N2C)O1,-2,-8,-2.9,i
CO[C@@H]1CN(C)C(=O)c2ccc(NC(=O)NC(C)C)cc2OC[C@@H](C)N(C(=O)CN(C)C)C[C@H]1C,1,2,-0.6,i
COC(=O)C[C@@H]1C[C@H]2c3cc(NC(=O)Nc4ccc(OC)cc4)ccc3O[C@H]2[C@H](CO)O1,-2,-7,3.4,i
C[C@H]1CN([C@@H](C)CO)C(=O)Cc2cc(NS(=O)(=O)c3ccc(Cl)cc3)ccc2O[C@H]1CN(C)Cc1ccc(C(F)(F)F)cc1,-2,7,-4.5,i
COc1ccc(NC(=O)N[C@H]2CC[C@@H](CCNC(=O)c3ccccc3F)O[C@@H]2CO)cc1,-2,-1,0.8,i
C[C@@H]1CN([C@H](C)CO)C(=O)c2cc(NC(=O)c3ccncc3)ccc2O[C@@H](C)CCCCO[C@@H]1CN(C)S(=O)(=O)c1ccc(Cl)cc1,-1,-7,9.8,i
C[C@@H]1CN([C@H](C)CO)C(=O)c2cc(-c3cncnc3)cnc2O[C@H]1CN(C)C(=O)Cc1ccccn1,0,5,0.7,i
C[C@@H]1CN([C@@H](C)CO)C(=O)c2cc(NC(=O)Nc3ccc(C(F)(F)F)cc3)ccc2O[C@@H](C)CCCCO[C@@H]1CN(C)C(=O)C1CCCCC1,3,9,-1.7,i
CN1c2ccc(C#Cc3cccnc3)cc2[C@H]2[C@H](CCN2C(=O)c2cccnc2)[C@@H]1CO,-2,1,-3.6,i
CCC(=O)N1CC2(C1)CN(C(=O)Nc1ccccc1F)[C@@H](CO)c1c2c2ccc(OC)cc2n1C,-2,3,-0.7,i
COc1ccc2c3c([nH]c2c1)[C@H](CO)N(C(=O)c1ccccc1)CC31CCN(S(=O)(=O)c2cccs2)CC1,0,14,0.9,i
CN1c2ccc(-c3cccc(F)c3)cc2[C@H]2[C@H](CCN2C(=O)CC2CC2)[C@@H]1CO,-1,-8,5.8,i
C[C@@H]1CN([C@H](C)CO)C(=O)c2cccc(NS(=O)(=O)c3cn(C)cn3)c2O[C@@H]1CN(C)Cc1ccncc1,5,8,-3.3,i
C[C@@H]1CN([C@@H](C)CO)C(=O)c2cccc(NC(=O)Nc3ccc4c(c3)OCO4)c2O[C@H]1CN(C)Cc1ccc2c(c1)OCO2,-5,-13,3.7,i
C[C@@H]1CCCCO[C@H](CN(C)C(=O)NC2CCCCC2)[C@H](C)CN([C@H](C)CO)C(=O)c2cc(NS(=O)(=O)c3ccc(Cl)cc3)ccc2O1,3,-8,2.9,i
O=C(c1ccccc1F)N1CC(=O)N2[C@H](CO)[C@H](c3ccc(-c4ccc(F)cc4)cc3)[C@H]2C1,-5,-17,-3.7,i
Cc1noc(C)c1S(=O)(=O)Nc1ccc2c(c1)C(=O)N([C@@H](C)CO)C[C@H](C)[C@@H](CN(C)C(=O)Cc1ccccc1)OCCCC[C@H](C)O2,-1,-7,2.9,i
C[C@H]1CN([C@@H](C)CO)C(=O)Cc2cc(NC(=O)Cn3cnnn3)ccc2O[C@@H]1CN(C)Cc1ccc(C(=O)Nc2ccccc2N)cc1,-2,-12,-2.5,i
CO[C@@H]1CN(C)C(=O)c2cc(NC(C)=O)ccc2OC[C@H](C)N(Cc2ccccc2C(=O)O)C[C@@H]1C,3,3,-1.6,i
CC(=O)N(C)C[C@@H]1Oc2ncc(C3=CCCC3)cc2C(=O)N([C@H](C)CO)C[C@@H]1C,4,9,-3.3,i
O=C(N[C@@H]1CC[C@H](CCNC(=O)C2CCOCC2)O[C@H]1CO)c1ccncc1,2,5,-4.6,i
COc1ccc(CN(C)C[C@@H]2Oc3ccc(NC(=O)Nc4c(C)noc4C)cc3CC(=O)N([C@H](C)CO)C[C@@H]2C)cc1,0,-1,-1.4,i
CCCNC(=O)C[C@H]1CC[C@@H]2[C@@H](COc3ccc(NC(=O)c4ccccc4)cc3C(=O)N2C)O1,-4,8,-2.5,i
C[C@H]1CN([C@@H](C)CO)C(=O)c2cc(NS(=O)(=O)c3cccs3)ccc2O[C@@H]1CN(C)CC1CCCCC1,2,8,-2.3,i
C[C@H](CO)N1C[C@H](C)[C@@H](CN(C)C(=O)Nc2cccc3ccccc23)Oc2c(cccc2N(C)C)C1=O,1,-2,0.5,i

# Shown with values under each structure: four of the compounds above
# Below each compound – rRNA inh HTS, rRNA inh HTS OD600, rRNA inh HTS RFP, FGF22 binding
- CO[C@@H]1CN(C)C(=O)c2cc(NC(C)=O)ccc2OC[C@H](C)N(Cc2ccccc2C(=O)O)C[C@@H]1C
 : 3, 3, -1.6, i
- O=C(N[C@@H]1CC[C@H](CCNC(=O)C2CCOCC2)O[C@H]1CO)c1ccncc1
 : 2, 5, -4.6, i
- C[C@H](CO)N1C[C@H](C)[C@@H](CN(C)C(=O)Nc2cccc3ccccc23)Oc2c(cccc2N(C)C)C1=O
 : 1, -2, 0.5, i
- COc1ccc(CN(C)C[C@@H]2Oc3ccc(NC(=O)Nc4c(C)noc4C)cc3CC(=O)N([C@H](C)CO)C[C@@H]2C)cc1
 : 0, -1, -1.4, i

# (further entries)
SMILES,rRNA inh HTS,rRNA inh HTS OD600,rRNA inh HTS RFP,FGF22 binding
COc1ccc(CN(C)C[C@@H]2OCCCC[C@@H](C)Oc3ccc(NC(=O)Nc4ccc(OC)cc4)cc3C(=O)N([C@@H](C)CO)C[C@H]2C)cc1,3,-5,-2.9,i
Cc1noc(C)c1NC(=O)Nc1ccc2c(c1)C(=O)N([C@@H](C)CO)C[C@@H](C)[C@H](CN(C)C(=O)c1ccccc1)OCCCC[C@@H](C)O2,1,7,-1.0,i
C[C@@H]1CN([C@H](C)CO)C(=O)c2cccc(NC(=O)CCCCCC(=O)Nc3ccccc3N)c2O[C@@H]1CN(C)S(=O)(=O)c1ccc(Cl)cc1,-8,0,-2.2,i
CO[C@@H]1CN(C)C(=O)c2ccc(NC(=O)c3ccc4c(c3)OCO4)cc2OC[C@@H](C)N(Cc2ccc3c(c2)OCO3)C[C@H]1C,-5,-5,-0.1,i
C[C@H](CO)N1C[C@H](C)[C@@H](CN(C)S(C)(=O)=O)OCCCC[C@H](C)Oc2ccc(NS(=O)(=O)c3ccccc3)cc2C1=O,-2,2,-0.8,i
C[C@H]1CN([C@@H](C)CO)C(=O)Cc2cc(NS(=O)(=O)c3ccccc3)ccc2O[C@@H]1CN(C)Cc1ccc2c(c1)OCO2,0,-5,8.4,i
CC(C)C[C@@H]1COc2cc(N3CCCC3)ccc2S(=O)(=O)N1,0,18,2.6,i
COc1ccc(S(=O)(=O)Nc2ccc3c(c2)CC(=O)N([C@H](C)CO)C[C@@H](C)[C@H](CN(C)Cc2ccc(Oc4ccccc4)cc2)O3)cc1,0,0,-0.3,i
C[C@H](CO)N1C[C@H](C)[C@H](CN(C)C(=O)CC2CC2)Oc2cc(C3=CCCCC3)ccc2S1(=O)=O,-37,-67,14,i
CC(C)(O)C#Cc1ccc([C@H]2[C@H]3CN(C(=O)c4ccncc4)CCCCN3[C@H]2CO)cc1,4,3,-0.2,i
C[C@@H]1CCCCO[C@H](CN(C)C(=O)C2CCCCC2)[C@H](C)CN([C@H](C)CO)C(=O)c2cc(NC(=O)NC3CCCCC3)ccc2O1,0,4,0.6,i
CCCNC(=O)C[C@@H]1CC[C@H]2[C@@H](COC[C@@H](O)CN2C(=O)CC)O1,-1,3,-2.9,i
CO[C@@H]1CN(C)C(=O)c2cc(NC(C)=O)ccc2OC[C@H](C)N(C(=O)Cc2cccnc2)C[C@@H]1C,4,1,-0.7,i
CC(C)NC(=O)N(C)C[C@@H]1Oc2ccc(NS(=O)(=O)c3ccccc3)cc2CC(=O)N([C@@H](C)CO)C[C@H]1C,7,6,1.6,i
C[C@H]1CN([C@@H](C)CO)C(=O)c2cccc(NS(=O)(=O)c3cn(C)cn3)c2O[C@@H]1CN(C)C,2,-6,2.6,i
Cc1cc(C(=O)Nc2ccc3c(c2)C(=O)N(C)[C@@H]2CC[C@H](CC(=O)N[C@@H](C)c4ccccc4)O[C@@H]2CO3)no1,-2,2,0.2,i
C[C@@H]1CN([C@H](C)CO)S(=O)(=O)c2ccc(-c3cccc(C(=O)N(C)C)c3)cc2O[C@H]1CN(C)C(=O)Cc1ccccn1,1,2,-1.6,i
C[C@@H]1CCCCO[C@H](CN(C)C(=O)C2CCCCC2)[C@@H](C)CN([C@@H](C)CO)C(=O)c2cc(NC(=O)c3ccccc3)ccc2O1,-3,-9,0.9,i
Cc1cc(O)cc(=O)n1-c1cccc(F)c1,9,8,2.2,i
COc1cccc(-c2cnc3c(c2)C(=O)N([C@H](C)CO)C[C@H](C)[C@@H](CN(C)Cc2ccc(F)cc2)O3)c1,-1,-8,6.0,i
C[C@@H]1CCCCO[C@@H](CN(C)S(=O)(=O)c2ccccc2)[C@@H](C)CN([C@@H](C)CO)C(=O)c2cc(N(C)C)ccc2O1,2,0,-0.2,i
CC(=O)N1[C@@H]2c3ccc(-c4ccccc4)c(=O)n3C[C@@H]2[C@@H](CO)[C@@H]1C(=O)NC1CCC1,2,8,-1.4,i
O=C(CN1CCOCC1)NCC[C@H]1CC[C@H](NC(=O)c2ccccc2F)[C@H](CO)O1,4,11,0.1,i

# An excerpt from above in order of molar mass, rising.
SMILES,rRNA inh HTS,rRNA inh HTS OD600,rRNA inh HTS RFP,FGF22 binding
Cc1cc(O)cc(=O)n1-c1cccc(F)c1,9,8,2.2,i
CC(=O)N1[C@@H]2c3ccc(-c4ccccc4)c(=O)n3C[C@@H]2[C@@H](CO)[C@@H]1C(=O)NC1CCC1,2,8,-1.4,i
O=C(CN1CCOCC1)NCC[C@H]1CC[C@H](NC(=O)c2ccccc2F)[C@H](CO)O1,4,11,0.1,i
